NPYLR7 agonist – activates Aedes aegypti NPYLR7 receptor. activation, % at 10 µM. 270,000 compounds, 0.15% hits. AID 1259423. HEK293T NPYLR7/Galpha15, GCaMP6s calcium fluorescence; in the data active = activation above about 40%;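 also: 0% = vehicle and 100% = reference agonist at the receptor; some compounds past the cut are filed as inactive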
NPYLR7 agonist max-min – also measured in NPYLR7 agonist; calls as there; activation, %; measured here: Max-Min RFU normalised activation; some inactives read as strong as hits;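 span of the calcium signal over five minutes; 0% = vehicle and 100% = native peptide agonist; compound fluorescence can raise it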
* hit, by the source's call; & = joins results of further samples. A portion of the library; the hit share may differ from the screen's.

SMILES	NPYLR7 agonist	NPYLR7 agonist max-min
O=C1N=C2OC=C(C(=O)Nc3ccc(F)c(Cl)c3)N2CCN1	0	-4
COc1ccccc1-c1cc(C(=O)N2CCN(c3ccccc3Cl)CC2)n2nc(-c3ccccc3)cc2n1	20&6	31&4
CCC(CC)C(=O)N(C)c1c(C)nc2c(OCc3cccc(OC)c3)cccn12	7	0
O=C(NCCn1nc(-c2ccc(Cl)cc2)ccc1=O)NC1CCCCC1	-3	2
O=S(=O)(NC1CCCCCC1)c1cc(Cl)ccc1Cl	10	4
CCc1nc2ccc(C(=O)Nc3cc(-c4ccccc4)ccc3OC)cn2c1N(C)CCC(C)C	-4	-9
CCc1nc2n(n1)C(=O)C(C(c1ccco1)N1CCOCC1)S2 (centres undefined)	-5	-11
CCNC(=O)[C@@H]1C[C@@H](N)CN1C(=O)C1=Cc2ccccc2OC=C1	5	3
COCCN(CC(N)=O)C(=O)Cc1coc2cc(OC)ccc12	14	11
CC(C)n1cc(C(=O)N(CCN(C)C)CC2CCCN(Cc3ccccc3F)C2)cn1 (centres undefined)	4	3
CCCSc1ncccc1C(=O)Nc1ccc(C(C)C)cc1	-5	-13
Cc1cc(C(=O)N(CC2CCN(CCc3ccccc3C)CC2)C2CCCC2)nc(N)n1	11	5
CC[C@H](C)C(=O)NC(c1ccc(S(C)(=O)=O)cc1)c1cccc(N(C)C)c1 (some centres undefined)	-4	-11
CCOc1cc(C2NC(=O)N(C)C(C)=C2C(=O)OC2CCCC2)cc(Br)c1O (centres undefined)	10	13
O=C(CN1CCCC1)N1N=C(c2ccsc2)CC1c1cccs1 (centres undefined)	9	5
CN1C[C@@H](NC(=O)c2cccc(F)c2)C[C@H]1C(=O)NCCCc1ccccc1	0	1
COc1ccccc1CNC(=O)N1CCN(c2c3c(nc4ncnn24)CCCC3)CC1	21	9
CN(Cc1cccs1)C(=O)CN1CCN(C(=O)c2ccccc2)CC1	-3	-2
CC(C)(C)c1cnc(C(=O)NCc2cc(C(N)=O)no2)o1	1	-1
CSc1ccc(CN2CCCC(Nc3ccc4c(c3)OCCO4)C2)cc1 (centres undefined)	17	7
O=C(NCCCn1ccnc1)c1cn(Cc2ccc(F)cc2Cl)nn1	2	2
O=C(NCc1cc(C2CC2)n[nH]1)C1CCC(=O)N(CCc2ccccn2)C1 (centres undefined)	5	3
COc1ccc(OCc2cc(C(=O)NCc3cccc(F)c3)no2)c(Cl)c1	12	7
Cc1cn2c(=O)c(C(=O)Nc3ncccc3C)cnc2s1	2	-4
Cc1[nH]n(-c2ccccc2)c(=O)c1C1=C([n+]2ccccc2)C(=O)N(c2ccc3c(c2)OCO3)C1=O	-4	2
Cn1cc(C(=O)Nc2cccc(C(F)(F)F)c2)c2[nH]c(=O)n(-c3ccc(Cl)cc3)c(=O)c21	3	1
Cc1c(C)[n+](=O)c2cc(Cl)c(Cl)cc2n1[O-]	-13	-18
Cc1cc(C)c(NC(=O)CSc2nc(=O)n(Cc3ccncc3)c3c2CCC3)c(C)c1	-2	-5
NCCNCCNCCN	-1	-7
O=C1CC(c2ccncc2F)c2c(n[nH]c2-c2ccc(Cl)cc2)N1 (centres undefined)	21	12
CCN(CC)CCN(C(=O)c1cc(Cl)sc1Cl)c1nc2cc3c(cc2s1)OCCO3	-5	-9
COc1ccc(-c2cnc3c(NCc4cc(OC)c(OC)c(OC)c4)nccn23)cc1	-4	-8
CCOc1ccccc1C(=O)N1CCC(OC)c2ccccc2N(C)C(=O)C1 (centres undefined)	3	13
Cc1ccccc1Oc1cc(C(C)C)nc(SCc2ccc(C(F)(F)F)cc2)n1	23	14
Cc1cnc2n(c1=O)C(CC(=O)NCc1cccs1)CS2 (centres undefined)	-1	-4
Cc1noc(CSCc2nc(CC(C)C)nn2-c2ccccc2)n1	12	9
CCn1nc(C)c(NC(=O)Nc2cc(F)c(OC)c(F)c2)c1C	-5	-7
O=C(NC1CCN(Cn2c(=O)oc3ccccc32)CC1)c1ccccc1	-6	-4
COc1ccccc1CC(=O)N1CCCC(CO)(CCOc2ccccc2)C1 (centres undefined)	5	3
COc1cc(CN2CCCC(c3nc4ccccc4o3)C2)cc(F)c1O (centres undefined)	4	2
CN(C)c1ccc(NC(=O)c2cccc(F)c2)cc1CN(Cc1ccco1)C(=O)c1ccccc1Cl	1	1
CC(C)CC(C)OCCC(=O)NC1(C#N)CCOCC1 (centres undefined)	8	6
COc1ccc(CC2CCN(S(=O)(=O)c3ccc(OC)cc3)CC2)cc1	5	0
CC(=O)N1CCN(C(=O)CS(=O)(=O)C23CC4CC(CC(C4)C2)C3)CC1	1	-1
Cc1ccc(CN2CCC(CN(C)Cc3cccc4c3OCO4)CC2)o1	1	0
CN(Cc1ccc(Cl)c(Cl)c1)C(=O)CCN=C1NS(=O)(=O)c2ccccc21	-4	-7
CCc1cc(N2CCN(c3ccccc3F)CC2)nc(SCc2ccc(C(=O)N3CCN(C)CC3)o2)n1	-3	0
Cc1noc(C)c1S(=O)(=O)N1CCc2onc(-c3cccc(F)c3)c2C1	6	-2
CC(=O)c1cccc(OCc2cc(C(=O)N(C)C(C)c3ccncn3)no2)c1 (centres undefined)	3	3
Cc1nc(C)c(Cc2ccc(F)cc2)c(N2CCN(C(=O)CCc3ccccc3)CC2)n1	5	15
N#Cc1c2c(c3c(c1NC(=O)CSc1ncccn1)CCCC3)CCCC2	10	4
CC(CS(=O)(=O)c1nc2ccccc2s1)N1CCC2(CC1)OCCO2 (centres undefined)	-4	-8
Cc1ccc(NC(=O)N[C@@H]2C=C(C(=O)N[C@@H](CCC(=O)O)C(N)=O)C[C@@H](O)[C@@H]2O)cc1	-10	-13
CCC1CCCCN1C(=O)c1cc(OC)ccc1O (centres undefined)	-2	-3
CCC(C)N(Cc1ccc(OS(=O)(=O)c2cccc(C(F)(F)F)c2)cc1)C(=O)Nc1ccccc1F (centres undefined)	17	19
CCOC(=O)c1c(NC(=O)CCl)sc2c1CCCCC2	-5	-10
COCC(=O)N(Cc1ccc(F)cc1)Cc1ccccc1OS(C)(=O)=O	-1	12
CCOCCCNC(=O)c1cc(NC(=O)Nc2ccc(C(=O)OCC)cc2)ccc1N1CCCC1	-2	14
CCOC(=O)c1nn(-c2ccccc2Cl)c(=O)cc1OS(=O)(=O)c1ccc(F)cc1	6	8
Fc1ccc(Oc2cc(N3CCN(C4CCCC4)CC3)ncn2)c(Cl)c1	-9	-5
(list continues)
SMILES	NPYLR7 agonist	NPYLR7 agonist max-min
C=C(C)Cn1c(=O)c2c(nc3n(Cc4ccco4)c(C)cn23)n(C)c1=O	1	10
COc1ccc(NC(=O)Cn2nc(-c3ccc(C)cc3C)c3sc(C)nc3c2=O)cc1	4	2
O=C(c1cnccn1)N1CCN(Cc2ccc(-c3noc(-c4cccc(C(F)(F)F)c4)n3)cc2)CC1	7	11
COc1ccc(C2c3cccn3-c3ccccc3N2C(=O)CN(C(=O)Nc2ccccc2C(F)(F)F)C2CC2)cc1 (centres undefined)	0	11
C#CCN(C)C(=O)c1ccc(-n2nc(C(=O)OCC)cc2-c2ccc3ccccc3c2)cc1	1	-1
Cc1ccc(S(=O)(=O)Cc2noc([C@@H]3C[C@@H](O)CN3Cc3c[nH]c4ccccc34)n2)cc1	-2	-12
CSCC(C)C(=O)N1CCC(NC2CC2)CC1 (centres undefined)	-2	-8
Cc1cc(C)n(CCN(C(=O)Cc2cccs2)c2nc3c(F)cc(F)cc3s2)n1	-18	-22
COc1cccc2sc(NS(=O)(=O)Cc3cccc(F)c3)nc12	12	8
CCc1nn2c(N)c(C=C3C=CC(=O)C=C3)c(=O)nc2s1	-4	-5
CCn1ccnc1CNC(=O)c1ccc(OC2CCN(CC(C)(C)C)CC2)c(Cl)c1	9	-1
CC1=NNc2nc3c(c(=O)n(Cc4ccccc4)c(=O)n3C)n2C1	1	7
CCOc1ccccc1C(=O)N1c2cccc3c2[C@@H](C[C@H]1C(N)=O)CN(Cc1ccc(OC)cc1)C3=O	7	12
Cc1cc(=O)n(-c2nc3ccccc3s2)[nH]1	-6	-11
CCc1nc(CC#N)nc(N2CCN(C(=O)c3ccco3)CC2)c1Cc1ccc(F)cc1	35	30

20 entries from above, bar-delimited.
Compound | NPYLR7 agonist | NPYLR7 agonist max-min
O=C(NC1CCN(Cn2c(=O)oc3ccccc32)CC1)c1ccccc1 | -6 | -4
COc1ccccc1CC(=O)N1CCCC(CO)(CCOc2ccccc2)C1 (centres undefined) | 5 | 3
COc1cc(CN2CCCC(c3nc4ccccc4o3)C2)cc(F)c1O (centres undefined) | 4 | 2
CN(C)c1ccc(NC(=O)c2cccc(F)c2)cc1CN(Cc1ccco1)C(=O)c1ccccc1Cl | 1 | 1
CC(C)CC(C)OCCC(=O)NC1(C#N)CCOCC1 (centres undefined) | 8 | 6
COc1ccc(CC2CCN(S(=O)(=O)c3ccc(OC)cc3)CC2)cc1 | 5 | 0
CC(=O)N1CCN(C(=O)CS(=O)(=O)C23CC4CC(CC(C4)C2)C3)CC1 | 1 | -1
Cc1ccc(CN2CCC(CN(C)Cc3cccc4c3OCO4)CC2)o1 | 1 | 0
CN(Cc1ccc(Cl)c(Cl)c1)C(=O)CCN=C1NS(=O)(=O)c2ccccc21 | -4 | -7
CCc1cc(N2CCN(c3ccccc3F)CC2)nc(SCc2ccc(C(=O)N3CCN(C)CC3)o2)n1 | -3 | 0
Cc1noc(C)c1S(=O)(=O)N1CCc2onc(-c3cccc(F)c3)c2C1 | 6 | -2
CC(=O)c1cccc(OCc2cc(C(=O)N(C)C(C)c3ccncn3)no2)c1 (centres undefined) | 3 | 3
Cc1nc(C)c(Cc2ccc(F)cc2)c(N2CCN(C(=O)CCc3ccccc3)CC2)n1 | 5 | 15
N#Cc1c2c(c3c(c1NC(=O)CSc1ncccn1)CCCC3)CCCC2 | 10 | 4
CC(CS(=O)(=O)c1nc2ccccc2s1)N1CCC2(CC1)OCCO2 (centres undefined) | -4 | -8
Cc1ccc(NC(=O)N[C@@H]2C=C(C(=O)N[C@@H](CCC(=O)O)C(N)=O)C[C@@H](O)[C@@H]2O)cc1 | -10 | -13
CCC1CCCCN1C(=O)c1cc(OC)ccc1O (centres undefined) | -2 | -3
CCC(C)N(Cc1ccc(OS(=O)(=O)c2cccc(C(F)(F)F)c2)cc1)C(=O)Nc1ccccc1F (centres undefined) | 17 | 19
CCOC(=O)c1c(NC(=O)CCl)sc2c1CCCCC2 | -5 | -10
COCC(=O)N(Cc1ccc(F)cc1)Cc1ccccc1OS(C)(=O)=O | -1 | 12

(cont.)
SMILES	NPYLR7 agonist	NPYLR7 agonist max-min
CCCN1C(=O)C(=Cc2c(NCCCO)nc3ccccn3c2=O)SC1=S	7	4
COCc1c(Br)c(C)nc(OCC(=O)N/N=C\c2ccc(OCc3ccc(Cl)cc3Cl)c(OC)c2)c1C#N	8	10
Cc1cccc(-c2noc(N3CCOCC3)c2CN(Cc2ccco2)C(=O)c2cccc(Br)c2)c1	0	8
CC1C(=O)N(c2ccccc2-c2ccccc2)CCN1C(=O)Nc1ccccc1 (centres undefined)	20	18
COc1cc(Cl)cc(C(=O)N2CC3(CCNCC3)CC2C(=O)O)c1 (centres undefined)	4	0
COc1ccc(C(=O)N2CCC3(CC2)OCC(C(=O)N2CCCC2)N3C(=O)c2ccccc2)cc1OC (centres undefined)	0	7
CCOc1ccc(N(CC)C(=O)C(=O)c2c(C)[nH]c3ccccc23)cc1	1	1
O=C1c2ncccc2C(CCO)N1c1ccccc1 (centres undefined)	1	3
COc1cc(NC(=O)N2CCCN(c3nc(Cc4ccccc4)ns3)CC2)cc(OC)c1	1	15
O=C(CCC(=O)N1CCCC(O)(CO)C1)c1ccccc1 (centres undefined)	4	1
Cc1nonc1C1CCCN1C(=O)c1cccc(C#CC(C)(C)O)c1 (centres undefined)	5	5
Cc1ccc(C(=O)CC2(O)C(=O)Nc3ccc(Cl)cc32)cc1 (centres undefined)	1	0
O=C(CCn1c(=O)[nH]c(=O)c2ccccc21)NC1COc2ccccc2C1 (centres undefined)	-8	-9
COc1cc2c(cc1OC)C(C(C)NC(=O)c1ccco1)N(Cc1cccc(C)c1)CC2 (centres undefined)	-1	10
CC1(Cc2ccccc2C#N)C(=O)Nc2ccc(-c3ccc4[nH]ccc4c3)cc21 (centres undefined)	1	6
CCCN1C(=O)/C(=N\OCC(=O)N2CCC(C)CC2)c2ccccc21	0	-1
CC(C(=O)NCCN(C)C)N1C(=O)CSC1c1ccc(C(F)(F)F)cc1 (centres undefined)	0	7
CCN1CCc2c(sc(NC(=O)C3CC3)c2-c2nc3ccccc3s2)C1	26	27
O=S(=O)(Cc1ccccc1)N1CCCC1c1ccccn1 (centres undefined)	15	11
Clc1cccc2ccc(CN3CCn4cncc4C3)nc12	133*	113*
COc1ccc(CN(Cc2ccco2)C(=O)c2cccc(C(F)(F)F)c2)c2ccccc12	-7	-16
Cc1cc(O)cc(=O)n1CC(=O)OC1CCN(c2ccc(Cl)cn2)CC1	-9	-15
Cc1[nH]cnc1C(=O)N1CCC(O)(CN(C)C)C1 (centres undefined)	2	2
OC(c1cccc(F)c1)c1ncc(-c2ccc(C(F)(F)F)cc2)[nH]1 (centres undefined)	4	1
Cc1ccc2nc(C)c(NC(=O)C(C)Oc3ccccc3F)c(=O)n2c1 (centres undefined)	5	3
O=C(NCC1CCC1)N(CCC(F)(F)F)C1CCC1	-4	-4
C[C@@]1(C2CCCC2)Cc2cc(OCC(=O)O)c(Cl)c(Cl)c2C1=O	4	-40
O=C(Nc1nc(-c2cccs2)cs1)C1Cc2ccccc2S1 (centres undefined)	-1	-2
COC(=O)c1ccc(Nc2nnc(Cc3ccc(C)cc3)c(=O)[nH]2)cc1	11	6
CCOC(=O)Cn1nnc2sc3c(c2c1=O)CCC(C)C3 (centres undefined)	-3	-5
O=C(CSc1ncnc2sccc12)N(C1CCCCC1)C1CCS(=O)(=O)C1 (centres undefined)	2	0
O=C(Nc1cccc(F)c1)N1CCSC1c1ccc(OCc2ccccc2)cc1 (centres undefined)	15	17

High-throughput results deposited in PubChem BioAssay by Fisher Drug Discovery Resource Center.
